Ecoli rRNA inh = inhibitors of bacterial rRNA selective over humanized ribosomes; 1.6% of 350,000 active; GFP signal change (wild-type ribosome), % (concentration not given with the values); AID 720706; E. coli WT GFP vs humanized-ribosome RFP mutants, fluorescence, 24 h; hits give low values; DMSO median 0, no signal -100;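 active = significant combined selectivity score with lowered wild-type GFP, culture density cut under 30%, mutant RFP and density less affected; inactive = any of these conditions unmet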; note: one replicate is shown; some compounds called inactive have numbers as strong as hits
FGF22 binding = shifts melting point of recombinant human FGF22 | recombinant FGF22 thermal shift, SYPRO orange fluorescence; percent of sucrose octasulfate shift, DMSO zero | calls only at 9.99 µM | Q9HCT0 | 1.5% of 340,000 active;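 active = melting point raised past a set limit in the mean and every replicate; three in four hits are not shown here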
Target sequence (Q9HCT0 whole entry, looked up): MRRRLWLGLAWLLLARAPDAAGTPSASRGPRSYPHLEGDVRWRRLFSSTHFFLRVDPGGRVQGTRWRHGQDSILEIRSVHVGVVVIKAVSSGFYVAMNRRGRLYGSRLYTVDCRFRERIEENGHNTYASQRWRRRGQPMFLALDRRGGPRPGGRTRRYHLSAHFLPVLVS
ALR inh = blocks human ALR sulfhydryl oxidase activity. P55789. purified ALR, DTT oxidation, H2O2 HRP-luminol luminescence. inhibition, % (no concentration beside the values). 3.8% of 290,000 active;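 active = mean and each replicate at 75% or more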;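 note: stock transfer was 7.5 nL into about 7.5 µL; 0% = neutral wells and 100% = wells with inactivated enzyme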
Target sequence (P55789 whole entry, looked up): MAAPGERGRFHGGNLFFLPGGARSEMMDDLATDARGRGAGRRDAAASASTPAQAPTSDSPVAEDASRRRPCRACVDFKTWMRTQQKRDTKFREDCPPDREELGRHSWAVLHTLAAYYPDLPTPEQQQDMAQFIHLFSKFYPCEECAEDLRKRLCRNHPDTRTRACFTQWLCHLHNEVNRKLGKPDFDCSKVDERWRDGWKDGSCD
Beta2AR agonist = human beta-2 adrenergic receptor agonism by FAP | P07550 | Am2.2-beta2AR cells, FAP receptor internalization, flow cytometry; reference of the scale not given here | response, % (concentration not given with the values) | 0.43% of 340,000 active | AID 504454;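 active = response above a set limit, near 3 SD of response in nonfluorescent compounds, cut at about 42% in these data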;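 note: stock transfer was 100 nL into about 11 µL; a reference agonist was the positive control; negative values mostly stem from fluorescent compounds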
Target sequence (P07550 whole entry, looked up): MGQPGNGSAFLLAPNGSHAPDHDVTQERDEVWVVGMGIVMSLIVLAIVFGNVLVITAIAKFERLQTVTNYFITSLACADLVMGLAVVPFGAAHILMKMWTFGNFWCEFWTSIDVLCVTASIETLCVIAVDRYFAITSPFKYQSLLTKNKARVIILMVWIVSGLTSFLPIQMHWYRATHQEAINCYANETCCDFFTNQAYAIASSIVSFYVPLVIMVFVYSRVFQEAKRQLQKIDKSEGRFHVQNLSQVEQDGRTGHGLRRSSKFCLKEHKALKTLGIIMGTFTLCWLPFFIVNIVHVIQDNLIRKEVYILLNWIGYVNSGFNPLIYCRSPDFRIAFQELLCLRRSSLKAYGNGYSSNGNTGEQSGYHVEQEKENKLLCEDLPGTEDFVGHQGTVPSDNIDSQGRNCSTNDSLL
UCH37 inh = inhibitors of human deubiquitinating enzyme UCH37. 0.33% of 330,000 active. Q9Y5K5. AID 588478. purified proteasome/UCH37, Ub-AMC cleavage fluorescence. inhibition, % (test concentration not listed);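 active = mean of two replicates above 20%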;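 note: 0% = compound-free wells with enzyme and 100% = wells lacking proteasome; stock transfer was 100 nL into about 20 µL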
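Schedule: 30 min plus 25 min, room temperature / Material: human UCH37 within purified proteasomes / Technique: AMC fluorescence intensity at 355/460 nm / Buffer or medium: pH 7.4 Tris-HCl (50 mM) with ovalbumin, ATP-MgCl2, DTT / Controls: wells without proteasome as full block, compound-free enzyme plus substrate as uninhibited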
E coli growth = E. coli growth inhibition | Escherichia coli growth, OD600, 23 h; hits give low values | AID 1053175 | 0.21% of 330,000 active | OD600 absorbance (no concentration beside the values);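 active = OD600 absorbance below the run mean of sample wells minus 3.6 SD, in any replicate, cut at about 0.56 in these data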;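 note: stock transfer was 300 nL into about 60 µL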
HNF4A DNA FP = change in binding of human HNF4 alpha to DNA | 0.3% of 360,000 active | HNF4a-FITC DNA binding, fluorescence polarization, 1 h | P41235 | AID 1224865 | activity change, % at 10 µM; in the data active = activity change above about 30%, passing the limit was not always enough;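 note: controls were the assay level and a saturating level of protein; the project sought stronger binding though the title names inhibitors; some compounds called inactive have numbers as strong as hits; positive values seem to mean higher polarization but the record does not say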
Ecoli rRNA inh OD600 = further read-out of Ecoli rRNA inh, marked with its call; OD600 change, %; measured here: OD600 growth;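 optical density of the mix in the first replicate; 0 = DMSO median and -100 = no signal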
Ecoli rRNA inh RFP = further read-out of Ecoli rRNA inh, marked with its call; RFP signal change, %; measured here: RFP humanized mutant strains;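 first replicate; 0 = DMSO median and -100 = no signal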
Starred values were filed as active, the others as inactive; i = inactive; · = no result given. Only part of the results is shown. The share of hits here may be higher or lower than overall.

No.	compound	ALR inh	Ecoli rRNA inh OD600	Beta2AR agonist	Ecoli rRNA inh RFP	HNF4A DNA FP	UCH37 inh	Ecoli rRNA inh	FGF22 binding	E coli growth
1	CC(=O)c1cccc(NC(=O)c2ccc(N(C)S(=O)(=O)c3ccc(C)cc3)cc2)c1	4	-15*	21	2.5*	-0.7	1.6	-24*	i	0.7
2	Cc1ccc(C)c(S(=O)(=O)NCCN2CCOCC2)c1	-8	-4	-5	1.5	2.1	0.9	-4	i	0.66
3	C[N+](C)(C)CCN1C(=O)c2ccccc2C1=O	·	16	·	-2.7	-0.6	·	21	i	·
4	CCOC(=O)Cc1nn(Cc2nc(-c3ccc(C#N)cc3)cs2)c(=O)c2ccccc12	-3	4	0	9.6	2.0	4.2	-2	i	0.71
5	COc1ccc(Cc2nc3ccc(S(N)(=O)=O)cc3[nH]2)cc1OC	-13	·	·	·	·	5.5	·	·	0.71
6	COc1cc(-c2nc(CN(C)Cc3nnc(C)o3)c(C)o2)ccc1F	-12	4	0	-0.4	-0.4	5.8	14	·	0.72
7	CNC(=O)c1c(C)nn(-c2ccc(F)c(Cl)c2)c1-c1cc(C)on1	·	22	3	3.4	-0.7	2.9	21	i	0.66
8	O=C(CSc1ccc2nnc(CCNS(=O)(=O)c3ccccc3)n2n1)Nc1nc2ccccc2s1	69	·	-1	·	6.4	·	·	i	·
9	Cc1cc(NS(=O)(=O)c2ccc(NC(=O)COc3cc(C)c(Cl)c(C)c3)cc2)no1	-3	11	20	2.0	-3.2	0.7	16	i	0.7
10	Cc1csc(=O)n1CCC(=O)OCC(=O)Nc1ccc(Cl)cn1	7	-5	4	-0.6	-0.1	0.7	3	i	0.65
11	N#Cc1ccc(C(=O)Nc2nnc(-c3ccco3)o2)cc1	·	-29	-4	-2.1	0.4	9.6	-25	i	0.62
12	COc1ccc(CN2CCNC(=O)C2CC(=O)N(C)Cc2nccn2C)cc1OC (configuration not stated)	-1	-1	6	-0.3	2.1	3.2	0	·	0.72
13	COc1ccc(-c2oc3c4c2C(=O)OCCOC4CCC3)cc1 (configuration not stated)	·	-8	·	-4.9	2.5	·	-2	i	·
14	CCN(c1nc(N)c(C(=O)N=C(N)N)nc1Cl)C(C)C	0	·	-5	·	3.4	1.1	·	i	·
15	COc1cc(C(=O)OCc2cc(=O)c(O)co2)ccc1OC(F)F	·	-11	7	1.8	2.5	0.9	-8	i	0.74
16	COc1ccc(Cc2nnc(NC(=O)c3ccccc3F)s2)cc1OC	-6	-3	4	1.6	1.2	1.0	-5	i	0.7
17	O=C(Cc1cccc2ccccc12)Nc1ccc(O)cc1C(=O)O	97*	1	-4	-1.5	0.3	-0.7	-4	i	0.66
18	Cc1ccc(NC(=O)NC2CC(=O)N(c3ccc4c(c3)OCCO4)C2)cc1 (configuration not stated)	·	18	-3	-2.0	2.6	6.3	10	·	0.71
19	CCOC(=O)C1CCN(C(=O)c2ccccc2NS(=O)(=O)c2ccccc2)CC1	3	2	-1	2.2	3.7	-1.3	2	i	0.73
20	CCCCCCN1C[C@H](O)[C@@H](n2cc(-c3ccc(F)cc3)nn2)C[C@@H]1c1ccccc1	·	-22	·	13	-5.4	·	-14	i	·
21	O=C(NNC(=O)c1cccc2ccccc12)c1ccc(-c2ccccc2)cc1	-3	·	-2	·	1.3	-46	·	·	0.67
22	COc1ccc(NC(=O)CN2C(=O)NC(c3ccccc3)(c3ccccc3)C2=O)cc1	1	-14	2	1.8	-1.7	-0.5	-9	i	0.7
23	Cc1cc(C(=O)CSc2nnc(-c3cccs3)o2)c(C)n1-c1ccccc1	-14	·	-9	·	6.0	2.4	·	·	0.76
24	CCCS(=O)(=O)NC(=O)C1(C)CCCN(C(=O)c2ccc(C#N)cc2)C1 (configuration not stated)	·	16	·	-1.7	1.1	·	5	i	·
25	CCCCCC(=O)Nc1cccc(C2=NOC3(C2)C[C@H](C(N)=O)N(C(=O)CC)C3)c1 (some centres not stated)	-3	·	4	·	-2.3	-2.5	·	·	·
26	C=CCN1C=CC(=O)[C@@H](O)[C@H]1c1ccccc1Br	·	·	-5	·	1.5	·	·	i	·
27	COc1ccc(CCNC(=O)C(=O)NCC2CCCO2)cc1OC (configuration not stated)	2	4	0	-0.7	-1.9	4.9	-1	·	0.68
28	O=C(O)CCc1nnc(SCC(=O)Nc2ccc(Cl)c(C(F)(F)F)c2)[nH]c1=O	47	-4	-9	2.9	0.9	1.2	2	·	0.7
29	CSc1nc2nc3c(cc2c(=O)n1-c1cccc(C)c1)COC(C)(C)C3	-16	12	-8	-0.4	2.8	2.1	14	i	0.71
30	O=C(c1ccc([N+](=O)[O-])o1)N(Cc1nnc(-c2ccccc2Cl)o1)C1CC1	-50	·	1	·	4.9	1.8	·	i	0.64

(listing goes on)
No.	compound	ALR inh	Ecoli rRNA inh OD600	Beta2AR agonist	Ecoli rRNA inh RFP	HNF4A DNA FP	UCH37 inh	Ecoli rRNA inh	FGF22 binding	E coli growth
31	O=C(O)c1ccccc1S(=O)(=O)c1ccccc1CO	-9	·	-1	·	-2.3	5.1	·	·	0.68
32	CCOC(=O)c1cc2c(ccn2-c2ccc(F)cc2)n1CC(=O)NC(C)(C)C	0	·	·	·	·	-11	·	·	0.69
33	CCc1cc2c(SCC(=O)c3cccs3)ncnc2s1	·	·	-5	·	-1.6	0.7	·	·	0.73
34	CCOC(=O)C1CCCN(C(=O)CN2C(=O)c3ccccc3C2=O)C1 (configuration not stated)	-8	·	3	·	1.8	3.2	·	·	0.67
35	COc1ccc(CCNC(=O)CSc2ccc(-c3ccccc3)nn2)cc1OC	·	-13	-11	-2.3	-1.9	0.4	-10	i	0.63
36	O=S(=O)(/C=C/c1ccccc1)Nc1ccc(F)cc1	-2	-39	-3	-5.8	0.0	-0.3	-33	i	0.66
37	CC(c1ccccc1)n1ccnc1CO (configuration not stated)	·	13	·	-5.2	0.5	·	4	i	·
38	CCOC(=O)C1CN(S(=O)(=O)c2ccc(Cl)cc2)c2cc(S(=O)(=O)CC)ccc2O1 (configuration not stated)	-11	4	-1	-3.6	0.6	-0.1	13	i	0.68
39	Cn1c(=O)c2sccc2n(CC(=O)NCCC2=CCCCC2)c1=O	-1	4	8	1.6	1.2	·	3	i	·
40	O=S(=O)(c1ccc(OC(F)(F)F)cc1)N1CCCC(c2ccccc2)C1 (configuration not stated)	-2	14	-8	-1.4	2.4	1.4	9	i	0.7
41	CC(=O)Nc1cc2cc(NS(=O)(=O)c3ccc(Cl)cc3)ccc2oc1=O	-4	12	-2	-1.1	-1.2	-15	11	i	0.67
42	COc1ccccc1-c1c(C(F)(F)F)oc2cc(OCC(=O)Nc3ccccc3C(F)(F)F)ccc2c1=O	-2	·	8	·	1.1	0.9	·	·	0.7
43	COc1cc(-c2noc(C)c2/C=C/c2ccc(N)cc2)cc(OC)c1OC	4	16	38	-2.3	9.9	2.2	11	i	·
44	Nc1nc(NCCOCCO)nc(NC2CCCCC2)c1[N+](=O)[O-]	6	-18	-26	-8.5	3.3	14	-17	i	0.66
45	O=C(O)CCNS(=O)(=O)c1ccc2c(c1)OCCCO2	-10	-10	0	-4.8	1.5	4.5	5	i	0.69
46	COC(=O)CSc1nc(SCc2ccc(C)cc2)nc2c1CCCC2	-10	·	-12	·	1.9	4.4	·	·	0.69
47	Cc1cc2cc3c(C)cc(=O)oc3c(C)c2o1	-10	3	1	-1.7	-0.1	-28	4	i	0.66
48	CN(Cc1cccnc1)C(=O)c1cc(COc2ccc3ncccc3c2)on1	-2	2	-2	6.7	7.0	2.0	-11	i	0.71
49	Cc1nn2cnnc2c(C)c1Cc1c(F)cccc1Cl	·	0	-1	-2.9	6.1	-0.4	-8	i	0.64
50	O=C(Nc1ccccc1N1CCOCC1)c1cccc2c(Br)cccc12	-7	-15	2	-3.9	-0.4	6.0	-14	i	0.67
51	COc1ccc(S(=O)(=O)N2CCCCCC2)cc1N(C)S(=O)(=O)c1ccc(Cl)cc1	-6	·	-9	·	-2.5	-1.0	·	·	0.73
52	O=S(=O)(Nc1ccc(Nc2ccccc2)cc1)c1ccc(F)cc1	98*	-42	5	-14	8.4	4.2	-47	i	0.66
53	O=C(O)CC1(CC(=O)Nc2ccccc2N2CCOCC2)CCCC1	-15	-5	0	-1.3	1.5	-0.6	-4	i	0.68

6 entries drawn at random from those above:
No.	compound	ALR inh	Ecoli rRNA inh OD600	Beta2AR agonist	Ecoli rRNA inh RFP	HNF4A DNA FP	UCH37 inh	Ecoli rRNA inh	FGF22 binding	E coli growth
35	COc1ccc(CCNC(=O)CSc2ccc(-c3ccccc3)nn2)cc1OC	·	-13	-11	-2.3	-1.9	0.4	-10	i	0.63
42	COc1ccccc1-c1c(C(F)(F)F)oc2cc(OCC(=O)Nc3ccccc3C(F)(F)F)ccc2c1=O	-2	·	8	·	1.1	0.9	·	·	0.7
41	CC(=O)Nc1cc2cc(NS(=O)(=O)c3ccc(Cl)cc3)ccc2oc1=O	-4	12	-2	-1.1	-1.2	-15	11	i	0.67
48	CN(Cc1cccnc1)C(=O)c1cc(COc2ccc3ncccc3c2)on1	-2	2	-2	6.7	7.0	2.0	-11	i	0.71
50	O=C(Nc1ccccc1N1CCOCC1)c1cccc2c(Br)cccc12	-7	-15	2	-3.9	-0.4	6.0	-14	i	0.67
37	CC(c1ccccc1)n1ccnc1CO (configuration not stated)	·	13	·	-5.2	0.5	·	4	i	·

Bioassay records from PubChem BioAssay.
